Source: PubChem
Menin-MLL FL inh: displaces fluorescein MLL peptide from human menin; AID 1766; FP activity change, % at 61.4 µM; Fluorescence polarization, fluorescein-MLL peptide displacement from menin; 290,000 tested, under 10 active; inconclusive = falling polarisation curve, or a change in total fluorescence; inactive = total fluorescence flat and polarisation flat or rising; no compound was filed as active; the % refers to the polarisation; negative = inhibition;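 further: % of control where 0% means no effect; inhibitors lower the polarisation; unlabelled MLL peptide was the positive control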
Sfp inh: Sfp phosphopantetheinyl transferase inhibition. Biochemical Sfp PPTase activity, qHTS. Potency, µM, for the others: max response, negative = inhibition, actives largely listed as inhibitors. 310,000 tested, 3.5% active; active means well fitted inhibition curve with a large enough effect; inconclusive means small, poorly fitted or top-dose-only effect, or another doubt; inactive means no such curve, though single readings can be large or run the other way;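 further: the enzyme is Sfp with the accession as filed and its product quenches rhodamine fluorescence; potency means the concentration at half of the fitted maximal effect; 0% = enzyme reaction without inhibitor and -100% = no enzyme wells; top concentration of the series not given in the record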
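Fluorescence-quenching assay with 15 nM Sfp, 5 uM rhodamine-CoA and 12.5 uM BHQ-2-labelled ybbR peptide in pH 7.6 Hepes/MgCl2 buffer. Enzyme was pre-incubated with compound for 15 min at room temperature. Rate was taken from the 30-min fluorescence change (525/598 nm).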
gsp agonist: agonists of gsp mutant (McCune-Albright syndrome). gsp mutant cells, cAMP HTRF, 30 min; control for the full effect not named in the record. Potency, µM (doses to about 76.9 µM), for inactives: at the top dose activation (cAMP increase), actives largely listed as activators. 340,000 tested, 0.13% active; active = well fitted activation curve with a large enough effect; inconclusive = small, poorly fitted or top-dose-only effect, or another doubt; inactive = no such curve, though single readings can be large or run the other way; cell line not stated here;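 further: phosphodiesterase inhibitor Ro 20-1724 added with compounds to block cAMP breakdown; potency means the concentration at half of the fitted maximal effect; nearly all actives have a fitted effect of over 60% in size; about a fifth of the inactives were tested at one dose only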
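Cells in DMEM/10% FBS with G418 were pretreated with compounds in DMSO plus […] (300 uM stock) for 30 min at 37C. cAMP was measured by HTRF (cAMP-d2 plus anti-cAMP antibody-K) after 30 min at room temperature.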
ClpP mod: qHTS Assay for Activators of ClpP; ATP-dependent Clp protease proteolytic subunit (Bacillus subtilis (strain 168)), P80244; purified B. subtilis ClpP, FRET peptide cleavage, 20 min; Potency, µM (titrated, usually from 57.5 µM), without a hit: at the highest dose activity change, negative = active; 340,000 tested, 1.9% active; AID 651965, 2013; active = well fitted falling curve with a large enough effect; inconclusive = small, poorly fitted or top-dose-only effect; inactive = no such curve, though single readings can be large or run the other way; further: potency means the concentration at half of the fitted maximal effect; the source files actives as falling curves though it sought activators and does not explain the sign; nearly all actives have a fitted effect of over 65% in size; many hits overshoot -100%
Target sequence (P80244 whole entry, looked up): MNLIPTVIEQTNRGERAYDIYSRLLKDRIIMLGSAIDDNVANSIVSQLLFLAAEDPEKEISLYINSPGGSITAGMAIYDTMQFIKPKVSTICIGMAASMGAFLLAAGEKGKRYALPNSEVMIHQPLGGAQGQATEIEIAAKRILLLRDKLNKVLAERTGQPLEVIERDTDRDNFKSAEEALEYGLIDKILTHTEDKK
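Buffer: 100 mM Tris/HCl pH8, 100 mM KCl, 0.05% low protease BSA, 2.5% glycerol, 0.01% Tween-20. ClpP 10 microg/mL final; 20 min RT; delta FRET normalized to ADEP and DMSO controls.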
TRPV1 potentiator: human TRPV1 potentiation; 320,000 tested, 0.02% active; AID 540277; TRPV1-expressing cells, Fluo-8 calcium influx, capsaicin EC20 potentiation; host cell line not named in the record; control for the full effect not named in the record; potentiation, % at 8.33 µM; active means potentiation above 80%; inconclusive means 30% to 80%; inactive means below 30%; further: 0% is about no effect
Target sequence (Q8NER1 whole entry, looked up): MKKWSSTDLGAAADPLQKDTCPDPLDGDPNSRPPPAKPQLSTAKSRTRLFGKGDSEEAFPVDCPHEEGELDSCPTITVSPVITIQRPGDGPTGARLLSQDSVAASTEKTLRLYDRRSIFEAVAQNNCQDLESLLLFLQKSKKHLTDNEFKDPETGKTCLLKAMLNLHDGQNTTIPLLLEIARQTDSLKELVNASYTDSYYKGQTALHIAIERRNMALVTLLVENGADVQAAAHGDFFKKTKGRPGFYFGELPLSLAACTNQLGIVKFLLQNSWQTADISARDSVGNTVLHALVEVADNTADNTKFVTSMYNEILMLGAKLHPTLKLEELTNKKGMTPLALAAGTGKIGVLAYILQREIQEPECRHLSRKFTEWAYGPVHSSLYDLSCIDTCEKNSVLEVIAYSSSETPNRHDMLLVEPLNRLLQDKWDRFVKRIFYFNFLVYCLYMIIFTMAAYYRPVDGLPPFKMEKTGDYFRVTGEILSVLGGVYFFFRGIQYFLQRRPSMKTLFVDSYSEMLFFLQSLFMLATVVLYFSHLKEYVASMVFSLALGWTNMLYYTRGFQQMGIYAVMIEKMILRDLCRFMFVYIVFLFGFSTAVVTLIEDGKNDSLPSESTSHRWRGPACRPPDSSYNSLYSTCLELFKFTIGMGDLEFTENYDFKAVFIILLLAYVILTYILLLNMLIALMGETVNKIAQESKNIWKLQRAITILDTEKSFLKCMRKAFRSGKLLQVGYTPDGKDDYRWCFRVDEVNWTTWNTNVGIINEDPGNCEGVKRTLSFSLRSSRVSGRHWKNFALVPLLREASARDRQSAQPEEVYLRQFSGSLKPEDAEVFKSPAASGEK
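Cells expressing TRPV1 were dye-loaded with Fluo-8 and read kinetically: 10 s baseline, 3 min after compound (agonist portion), then 2 min after EC20 capsaicin (allosteric enhancer portion). Calcium-bound dye fluorescence at 480/520 nm.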
TRPML1 inh: blocks the human TRPML1 channel. TRPML1-inducible cells, Ca2+ dye fluorescence, FDSS; stronger effect = lower value; inhibition of EC80 agonist-evoked calcium signal. activity change, negative = inhibition, % (test concentration not listed). 390,000 tested, 0.02% active. AID 624415; in the data active means activity change below about -50%; inconclusive means about -30% to -50%; inactive means above about -30%;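 further: stimulus is agonist 54-4 at its EC80 concentration; on the % scale 0 is the no-effect control and ±100 the full control effect; compound concentration not given in the record; the text of the record puts the active cut at -80%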
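Tet-induced TRPML1-DL cells loaded with Ca8 no-wash calcium dye were read kinetically on FDSS. Compound addition was followed by EC80 agonist 54-4 (4 uM final); inhibition was read over 110 s.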
gsp antagonist: antagonists of gsp mutant (McCune-Albright syndrome); gsp-mutant cells, cAMP HTRF, 30 min; control for the full effect not named in the record; Potency, µM (titrated, usually from 76.9 µM), inactives show top-dose activity change, negative = inhibition, most hits filed as inhibitors; 340,000 tested, 0.4% active; AID 624288; active = falling curve of any shape with a large fitted effect; inconclusive = falling curve, mostly with a smaller effect; inactive = flat or rising curve; cell line not stated here;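 further: intracellular cAMP measured with PDE inhibitor Ro 20-1724 present during compound exposure; potency means the concentration at half of the fitted maximal effect; on the % scale 0 is the no-effect control and ±100 the full control effect; nearly all actives have a fitted effect of over 65% in size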
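G418-selected cells were plated in DMEM/10% FBS for 16-24 h at 37C, then treated with compounds plus the PDE inhibitor […] (300 uM solution added) for 30 min at 37C. Intracellular cAMP was measured by HTRF after 30 min lysis at room temperature.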
Numbers without * were called inactive; ? = inconclusive; · = not tested or not shown; & = joins results of further samples; [ ] = remark or other dose. Rows are unselected; overall some 4.9% were active at least once.

SMILES	Menin-MLL FL inh	Sfp inh	gsp agonist	ClpP mod	TRPV1 potentiator	TRPML1 inh	gsp antagonist
CC(=O)Nc1ccc(S(=O)(=O)N[C@@H](C)C(=O)OCc2cc([N+](=O)[O-])cc3c2OCOC3)cc1	4.3	21%	5%	-2.4%	7	27	-2%
CC(=O)/C(C#N)=C1\NC(=O)C(Cc2ccccc2)S1 (centres undefined)	3.3	13%	-3%[15.4 µM]	2.1%	-5	-2	-11%
CCOc1ccc(NC(=O)C2=C(C)NC(=S)NC2c2ccc(O)c(OC)c2)cc1 (centres undefined)	1.3	4%	?	-12%	3	-14	2%
O=C(NCc1ccccc1)c1cc2ccc(O)cc2oc1=O	-0.5	-1%	8%[15.4 µM]	-1.1%	-7	-16	8%
CCN1C[C@@H]2[C@@H]3C(=O)N(C)C(=O)[C@@H]3[C@](C)(C1=O)N2C(=O)c1ccc(Cl)c(Cl)c1	·	·	34%	0.9%	·	-4	6%
CCN(Cc1cccs1)C(=O)c1cccc(S(=O)(=O)N2CCN(C)CC2)c1	·	·	?	2.0%	5	-13	-6%
CCC(C)NC(=O)Cn1cnc([N+](=O)[O-])c1 (centres undefined)	0.5	10%	-17%	-1.0%	-6	-15	16%
O=c1[nH]c(-c2ccccn2)cc2ccccc12	2.1	14%	-14%	19%	-4	-5	-5%
CCC(=O)N(C)CCc1cc2c(c(OC)c1/C=N/Nc1ccc(C(=O)O)cc1)OCO2	2.6	-6%	-16%[15.4 µM]	·	6	-10	?
CC(C)Oc1ccccc1/C=N/NC(=O)C1CC1	·	·	-1%[15.4 µM]	·	·	1	7%
O=C(CCNC(=O)c1ccc([N+](=O)[O-])cc1)NNC(=O)c1ccccc1F	·	·	-35%[inhibitor]	-2.4%	-1	-3	-11%
C=CCn1c(=O)c2c(nc3n2CCN3c2cccc(Cl)c2C)n(C)c1=O	5.1	15%	-52%[inhibitor]	-9.1%	6	7	-21%
Cc1ccc(C(C)C)c(OCCNC(=O)c2cncc(Br)c2)c1	2.2	7%	17%	-9.6%	-13	12	-4%
O=C(NCc1ccccc1F)C(=O)NCC1CCCN1S(=O)(=O)c1cccs1 (centres undefined)	·	·	-12%	-1.7%	17	8	7%
Cc1cc(C)c(S(=O)(=O)NCc2csc(C)n2)c(C)c1	-13	12%	15%	-3.0%	-12	23	4%
CC(C)CCNc1nc(N)c([N+](=O)[O-])c(NC2CCCCC2)n1	2.2	11%	42%	-3.5%	-6	-4	12%
Cc1nnc(SC(C)C(=O)Nc2ncc(Cl)cc2Cl)n1Cc1ccccc1 (centres undefined)	-3.3	2%	-1%	1.3%	10	4	17%
COc1cc(C)c(CN2CCC(n3nccc3NC(=O)C3CC3)CC2)cc1C	·	21%	-16%	-1.4%	3	-13	8%
CC(=O)NS(=O)(=O)c1ccc(NC(=O)[C@@H]2CCCN2S(=O)(=O)c2ccc(Cl)cc2)cc1	·	·	?	-1.0%	·	-1	6%
CCN(CC)CCNC(=O)c1ccc(NC(=O)c2ccc(C(=O)c3ccccc3)cc2)cc1	·	·	13%[15.4 µM]	·	-7	-7	8%
Cc1nc2c(C)cccn2c1C(=O)N/N=C/c1ccccc1[N+](=O)[O-]	0.5	14%	10%	·	13	-14	9%
CCN1CCN(c2nn3c(=O)c4ccccc4nc3c3ccccc23)CC1	-0.2	15%	4%	-13%	1	-5	-15%
COc1ccc(CCNC(=O)CS(=O)Cc2nc(-c3ccccc3F)oc2C)cc1OC (centres undefined)	-0.3	-4%	?	-3.9%&-3.2%	6	-10&7	0%
O=C(CNc1ccccc1)N/N=C/c1ccc([N+](=O)[O-])o1	1.0	0%	-18%	-1.1%	11	-25	10%
Cc1ccc(C)c(NC(=O)c2cc(S(=O)(=O)N3CCCCC3)ccc2N2CCOCC2)c1	·	·	21%	-2.6%	-14	-7	?
Cc1ccccc1CS(=O)(=O)Cc1ccc(C(=O)NCCCN2CCOCC2)o1	-0.2	8%	3%[15.4 µM]	1.6%	17	-14	4%
Fc1cccc(NCCc2c[nH]c3ccccc23)n1	-4.7	-6%	-8%	-1.6%	?	6	-8%
COC(=O)Cn1c(=NC(=O)c2ccc(Cl)s2)sc2cc(C)ccc21	-2.3	0%	11%	?	10	-18	?
C=CC1=C2C=C(C3CC3)N(CCCN(CC)CC)C=C2C(=O)C(C)(OC(=O)c2ccco2)C1=O (centres undefined)	-11[11.7 µM]	7%	1%	-1.2%	·	-1	5%
NC(=NC1CCCCC1)c1ccc(Cl)cc1	4.8	3%	0%	·	-6	12	13%
CC[C@]12c3[nH]c4ccc(OC)cc4c3CCN1C(=O)C(CC(=O)NCCc1ccccn1)C[C@@H]2C(=O)N1CCN(C(=O)c2ccco2)CC1 (some centres undefined)	·	·	·	0.4%	·	48	4%
COc1ccc(-c2cc(=Nc3ccc(C(=O)O)cc3)c3cc(C)ccc3o2)cc1	-0.6	17%	-3%[15.4 µM]	?	4	-2	-2%
COc1cccc(C2=Nn3c(nnc3-c3ccccc3O)SC2)c1	1.4&-2.1	?	?	-1.3%	·	12	10%
COc1ccc(CN2CCNC(=O)C2CC(=O)N(C)Cc2nccn2C)cc1OC (centres undefined)	-8.9	-12%	17%	·	-3	-6	9%
O=c1c2cnn(-c3ccccc3)c2nc(-c2cccs2)n1-c1ccc(Cl)cc1	7.2	7%	18%	-12%	-51	-5	-6%
CC(C)(C)c1cc(CN(CCO)CCO)c(O)c(C(C)(C)C)c1	-0.7	20%	-16%	0.9%	-8	-3	3%
Cc1nc(SCC(=O)N2CCOCC2)c2ccsc2n1	0.7	6%	-9%	-0.8%	3	3	5%
COc1ccc(C(=O)CCc2ccccc2)c(O)c1	·	·	11%	·	·	3	-18%
Cc1ccc(NC(=O)C2(c3ccccc3)CC2(Cl)Cl)cc1C (centres undefined)	4.9	-2%	0%[15.4 µM]	0.7%	4	-1	-27%
CCOC(=O)c1cc(NC(=O)Nc2ccc(Br)cc2)c(C)nc1C	1.2	-28%	-91%[inhibitor]	0.2%	-10	-11	?

2 of the compounds above, as a markdown table.
| compound | Menin-MLL FL inh | Sfp inh | gsp agonist | ClpP mod | TRPV1 potentiator | TRPML1 inh | gsp antagonist |
| --- | --- | --- | --- | --- | --- | --- | --- |
| C=CC1=C2C=C(C3CC3)N(CCCN(CC)CC)C=C2C(=O)C(C)(OC(=O)c2ccco2)C1=O (centres undefined) | -11[11.7 µM] | 7% | 1% | -1.2% | · | -1 | 5% |
| NC(=NC1CCCCC1)c1ccc(Cl)cc1 | 4.8 | 3% | 0% | · | -6 | 12 | 13% |

(further entries)
SMILES	Menin-MLL FL inh	Sfp inh	gsp agonist	ClpP mod	TRPV1 potentiator	TRPML1 inh	gsp antagonist
CC(=O)c1ccc(NC(=S)N(CCCN(C)C)Cc2ccccc2)cc1	2.5	-6%	-5%[15.4 µM]	·	1	-17	3%
COC(=O)c1ccccc1NC(=O)NCc1c(C)nn(C)c1C	5.1	-13%	14%[15.4 µM]	-2.3%	-3	-4	2%
COc1ccc(CC(=O)O/N=C(\N)c2ccccn2)cc1OC	·	3%	21%	-1.6%	-2	16	-4%
COc1ccccc1Cn1nnc2c(=O)[nH]c(C3CCN(C(=O)c4ccccc4Cl)CC3)nc21	2.4	-14%	-60%[inhibitor]	-0.8%	-6	46	-1%
CCN(CC)CCn1c(N)nc2ccccc21	-0.3	-7%	6%[15.4 µM]	·	23	15	11%
COc1ccc(NC(=O)CC2SC(N3CCCCC3)=NC2=O)cc1OC (centres undefined)	·	·	?	-1.4%	1	36	5%
COc1ccc(-c2sc3cc(OC)c(OC)cc3c2C#CC(C)(C)O)cc1	·	·	11%	4.5%	13	54	-14%
CCC(C)c1ccccc1NC(=O)c1[nH]c(C)c(C(C)=O)c1C (centres undefined)	4.9	-10%	-6%	·	-6	-22	-3%
CN1CCN(C(=O)c2cc3nc(-c4ccc(F)cc4)cc(C(F)(F)F)n3n2)CC1	2.2	-10%	-23%	-6.4%	18	2	-6%
COc1ccc(-c2c3c(nc4sc(C(=O)Nc5cc(C)on5)c(N)c24)CCC3)cc1	4.4	-10%	?	-11%	3	-7	-7%
COc1ccccc1CNC(=O)C(C)NS(=O)(=O)c1ccc(C)cc1 (centres undefined)	-2.0	8%	16%	-1.2%	0	2	12%
CC(C(=O)NC1CCCCC1)N1C(=O)c2cccc3cccc1c23 (centres undefined)	·	4%	?	-4.1%	-11	15	-6%
O=c1c2ccccc2ncn1CCCSc1ccccc1	5.5	6%	?	-2.8%	·	3	-5%
C=CCOc1ccc2nnc(C)n2n1	-0.8	11%	14%	3.8%	-1	8	?
Cc1ccc(Cl)cc1NC(=O)COC(=O)c1ccccc1O	6.1	9%	16%	6.6%	-1	6	7%
CCCC(=O)Nc1nnc(-c2ccc(Cl)s2)o1	1.7	6%	29%	5.0%	1	-6	1%
COc1ccc(C(=O)Oc2cc(/C=N/NS(=O)(=O)c3ccc(C)cc3)ccc2OC)cc1	3.8	14%	-8%	-1.3%	23	6	-11%
CCOC(=O)c1cc(-c2ccccc2)n(CC(=O)Nc2ccc(OC)cc2)c1C	0.0	-6%	12%	-1.7%	-3	-5	8%
CCN(Cc1cnn(C)c1)Cc1nc(Cc2ccccc2Cl)no1	3.5	6%	1%	-1.2%	0	34	6%
Nc1nc(-c2ccccc2)c(CCCNc2ccccc2)c(=O)[nH]1	·	·	-3%[15.4 µM]	?	·	-1	0%
CCN(CC)c1nc(N)c(C#N)c(CC#N)c1C#N	·	·	-3%	-16%	·	7	-8%
COc1cccc(OC)c1OCCCN1CCOCC1	3.0	-20%	-4%	-4.6%	1	7	4%
COc1ccccc1NC(=O)c1cc(=O)[nH]c2ccccc12	-3.9	2%	10%[15.4 µM]	-0.8%	-4	21	11%
C[C@H](CO)N1C[C@H](C)[C@@H](CN(C)Cc2ccc(C(=O)O)cc2)Oc2c(cccc2N(C)C)C1=O	·	·	·	-0.8%	·	12	15%
COc1ccc(-c2nc3ccccc3c(=O)n2N)cc1	3.7	16%	5%	-2.4%	2	5	5%
O=C(CSc1nc2ccccc2o1)N/N=C/c1ccc(C(=O)O)cc1	1.1	-5%	2%[15.4 µM]	·	8	9	7%
